H5N1 antiviral: antiviral screen in MDCK cells, H5N1 avian flu; cytopathic effect, luminescence, 72 h; active compounds read high; no value below 0 was filed and about half of the inactive calls have no number; reference of the scale not given here; actives 0.07% (n = 96,000); inhibition, % at 50 µM; in the data active = inhibition above about 25%
An asterisk follows results filed as active; i = inactive.

Compound	H5N1 antiviral
CCOC(=O)N1CCC(NC(=O)CCN2C(=O)COc3ccccc32)CC1	i
O=C(CCC(=O)OCc1ccc(C(=O)Oc2ccccc2)cc1)Nc1cccc2ccccc12	i
Cc1ccccc1CN1C(=O)Nc2ccccc2C(=O)N1C(C)(C)C	0.4
O=S(=O)(NCCOc1ccc(F)cc1)c1ccc2c(c1)OCCO2	i
CCCOc1ccc(C(C)=O)cc1CSCCC#N	0.1
C=CCc1c(OC)ccc2ccc(=O)oc12	i
O=c1oc(Nc2ccc(F)cc2)nc2ccccc12	i
CCOC(=O)N1CCN(C(=O)CSc2ccccc2)CC1	i
COc1cc([N+](=O)[O-])ccc1NC(=O)CN(C)C	0.2
Oc1ccccc1C1=Nc2ncnn2C(c2ccccc2)C1 (configuration not stated)	2.5
COc1cccc2cc(C(=O)NC(C)C3CCCO3)c(=O)oc12 (configuration not stated)	i
CCNc1c([N+](=O)[O-])ncn1C	0.1
O=C(NCC1CCCO1)c1c(O)c2c([nH]c1=O)CCCC2 (configuration not stated)	i
CNc1oc(-c2cccc3ccccc23)nc1C#N	i
Cc1nnc(NC(=O)CCSc2ccccc2)s1	i

Exported with each value named: entries from further up.
compound: Oc1ccccc1C1=Nc2ncnn2C(c2ccccc2)C1 (configuration not stated)
  H5N1 antiviral = 2.5

compound: CCOC(=O)N1CCN(C(=O)CSc2ccccc2)CC1
  H5N1 antiviral = i

(list continues)
Compound	H5N1 antiviral
O=C(C1CCN(S(=O)(=O)N2CCOCC2)CC1)N1CCN(Cc2ccc3c(c2)OCO3)CC1	i
Cc1ccc(S(=O)(=O)NCC(c2cccnc2)N(C)C)cc1 (configuration not stated)	0.7
O=C(NC1CCCCCCC1)C1CCC(CNc2c(N3CCCC3)c(=O)c2=O)CC1 (configuration not stated)	1.4
Cc1ccc(S(=O)(=O)NCC2CCC(C(=O)NCCCN3CCOCC3)CC2)cc1 (configuration not stated)	i
COc1ccc2c(Cl)c(C(=O)NCc3ccco3)sc2c1	i
Cc1cc(C)cc(OCC(=O)OCC(=O)c2ccc3c(c2)NC(=O)CO3)c1	i
Cc1nc2ccccn2c1P(=Nc1ccccc1)(N(C)C)N(C)C	i
CCN(CC)C(=O)COc1ccc(Br)cc1Cl	3.1
CN(C(=O)c1ccncc1)c1nnc(-c2cccnc2)s1	0.5
Nc1nonc1-n1nnc(C(=O)O)c1-c1cccs1	i
CC(C)CCN(CCC(C)C)C/C(O)=C(\C#N)c1nc(-c2ccccc2)cs1	0.6
COc1ccc(-c2cc(C(F)(F)F)n3nc(C(=O)Nc4cc(C)on4)cc3n2)cc1OC	0.8
Cc1ccc(N2C(N)=C(C#N)C(c3cccnc3)C3=C2CCCC3=O)cc1 (configuration not stated)	3.9
CCOC(=O)C1=C(C)OC(N)=C(C(=O)OC)C12C(=O)Nc1ccc(Br)cc12 (configuration not stated)	i
Cc1cc(C)nc(NCC(O)CNc2ccccc2Cl)n1 (configuration not stated)	3.3

Following part:
Compound	H5N1 antiviral
CCOc1ccc(C(=O)Nc2cc(-c3nc4ccccc4[nH]3)ccc2C)cc1[N+](=O)[O-]	i
CC(C)C(=O)NC(=S)NCC(=O)c1ccccc1	i
COc1ccc(C(=O)C[N+]2(C)CCOCC2)cc1	i
CCCOc1ccc(C2c3c(oc4cc(C)c(C)cc4c3=O)C(=O)N2CCCN2CCOCC2)cc1 (configuration not stated)	i
Cc1cc(C(F)(F)F)nc(SCC(=O)Nc2ccccc2)n1	0.9
O=C(CN1CCN(S(=O)(=O)c2cc(Cl)ccc2Cl)CC1)Nc1ccc2c(c1)OCCO2	i
Cc1cc(NC(=O)c2cc(C)on2)no1	i
O=C1Nc2ccc(F)cc2C12Nc1ccccc1-c1nnc(SCc3ccccc3F)nc1O2 (configuration not stated)	i
O=C(O)c1ccc(CN(c2ccccn2)S(=O)(=O)c2ccccc2)cc1	i
CCCCc1c(O)n2c(nc3ccccc32)[nH]c1=O	2.2
Cc1ccc(C(=O)Nc2nc(-c3cccnc3)cs2)o1	0.7
Cc1ccc(C(=O)c2cn(-c3ccc(F)c(Cl)c3)nn2)cc1	0.7
CCCn1c(O)c(CN2CCCCC2)c(C)c(C#N)c1=O	i
CCn1cc(S(=O)(=O)CC(=O)Nc2cc(C)ccc2C)c2ccccc21	0.6
Cc1onc(-c2ccccc2)c1C(=O)N1CCCN(C(=O)c2c(-c3ccccc3)noc2C)CC1	1.4

Additional compounds follow.
Compound	H5N1 antiviral
COCc1nnc(NS(=O)(=O)c2ccc(Br)cc2)s1	0.5
CSc1ccc(S(=O)(=O)NCc2ccccc2)cc1	i
FC(F)(F)c1cc(Oc2ccccc2Cl)nc(-c2ccccn2)n1	0.1
Cc1[nH]nc(-c2ccc(O)c(C)c2O)c1Oc1ccccc1	2.3
C=CCOC(=O)Nc1c(C(=O)OC)[nH]c2ccc(Cl)cc12	0.6
Cc1cc(OCCSc2nnc(-c3cccs3)n2C)ccc1Cl	9.2
Cc1ccc(-c2cc(N)n[nH]2)cc1	i
CC1(C)CC(=O)c2cc(OCC(=O)NCCCN3CCN(c4ccccc4F)CC3)ccc2O1	0.2
CN1OC(COC(=O)c2ccc(Cl)cc2Cl)CC1c1ccccc1 (configuration not stated)	i
CN(Cc1ccccc1)c1nc2c(c(=O)[nH]c(=O)n2C)n1Cc1ccccc1	0.8
COC(=O)CNC(=O)CCCCC(=O)NCC(=O)OC	0.6
Cc1cc2c(cc1C)-c1nnnn1C(C)(C)C2	0.8
CCOc1ccc2c(O)csc2c1	1.5
COc1cc(C(=O)N2CCN(C(=O)CC(C)C)CC2)cc(OC)c1OC	0.6
C=CCn1c(SCC(=O)Nc2cc(C)on2)nc2sc3c(c2c1=O)CCCC3	0.3

More records:
Compound	H5N1 antiviral
Cc1ccc(Nc2nc(N)nc(CN3CCN(Cc4ccc5c(c4)OCO5)CC3)n2)cc1Cl	i
COc1ccc(C2C/C(=N\O)C(C)(C)O2)cc1 (configuration not stated)	i
Cc1ccc(-n2c(N)c(-c3nc4ccccc4n3C)sc2=S)cc1	i
Cc1ccc(SCC(=O)NCCN2C(=O)CSC2=O)c(C)c1	i
Cn1c(SCC(=O)c2ccccc2)nnc1-c1cccc(N)c1	i
Cc1nc(SCC(O)CO)c([N+](=O)[O-])[nH]1 (configuration not stated)	0.1
CC(C)NC(=O)c1ccccc1NC(=O)CCS(=O)(=O)Cc1ccccc1	0.5
Nc1nc(NC(=O)c2cccnc2)nn1-c1ccccc1	0.8
CCOC(=O)c1ccc(NC(=O)CSc2nc3c(c(=O)n2CC)SC(C)C3)cc1 (configuration not stated)	2.1
CCOc1cc(CN2CCOCC2)cc(C(C)=O)c1	1.1
COc1ccc2[nH]c(=O)c(COC(=O)c3ccco3)cc2c1	0.3
COC(=O)c1[nH]c2ccccc2c1NC(=O)C(C)N1CCN(C(=O)c2ccco2)CC1 (configuration not stated)	0.6
Cc1noc2ncc(C(=O)c3cc(F)ccc3O)cc12	i
CSc1nc(Oc2ccc(=O)[nH]n2)nc(N(C)C)n1	i
COc1ccc(S(=O)(=O)Cc2ccc(C(=O)NCc3ccco3)o2)cc1	0.8

(list continues)
Compound	H5N1 antiviral
Cc1cc(NC(=O)CNC(=O)C2CCCCC2)no1	0.4
CCC(c1nnc(SCC(=O)N2CC3(C)CC2CC(C)(C)C3)o1)N(C)C (configuration not stated)	0.6
CC(=O)n1c2ccccc2c2c1c1ccccc1n2C	i
Cc1cccc(C)c1N1CCN(c2nc(N(C)C)oc(=O)c2C#N)CC1	i
CCCCOP(=O)(c1ccc(N(C)C)cc1)C(O)c1cccnc1 (configuration not stated)	0.1
COc1ccc(C2C(C#N)=C(N)Oc3n[nH]c(C)c32)cc1CSc1ccccn1 (configuration not stated)	i
Cc1ccc(O)c(NC(=O)c2cccc(S(=O)(=O)N3CCCCC3)c2)c1	i
COCCn1nnnc1C(c1ccccc1OC)N1CCN(c2ccccc2F)CC1 (configuration not stated)	i
CC(=O)N1N=C(c2ccc(C)cc2)OC1c1ccc(C(C)C)cc1 (configuration not stated)	i
CCCCNC(=O)CCn1c(=S)[nH]c2cc3c(cc2c1=O)OCO3	0.5
CCC1CCCCN1C1Sc2ccc(C(=O)OC)cc2NC1=O (configuration not stated)	1.0
O=C1COc2ccc(C(=O)CSc3nnc(Cc4cccs4)n3-c3ccccc3)cc2N1	0.0
O=C(N/N=C/c1ccc(Cl)cc1)c1sccc1OCc1ccc(F)cc1	0.4
FC(F)(F)c1cc(Cl)c2nc(-c3ccccc3)cn2c1	i
Cn1c2c(c(=O)n(C)c1=O)CN(Cc1ccco1)CN2	1.3

Overlap with the part before: two entries, then new ones.
Compound	H5N1 antiviral
FC(F)(F)c1cc(Cl)c2nc(-c3ccccc3)cn2c1	i
Cn1c2c(c(=O)n(C)c1=O)CN(Cc1ccco1)CN2	1.3
O=C(CSc1nc2ccccc2o1)Nc1ccccc1N1CCOCC1	4.3
CC1=NNC(=O)C1C(c1ccccc1)C(C#N)C#N (configuration not stated)	i
O=C(NCc1ccccc1F)C1CCCN1C(=O)NCc1ccccc1 (configuration not stated)	0.2
O=C1NC(=S)SC1=C1CCCCCC1	0.2
CCOC(=O)C1C(=O)NC2(C)CC1c1cc(OC)ccc1O2 (configuration not stated)	i
COc1ccc(/C=N/Nc2ccc([N+](=O)[O-])cc2)cc1Cn1cc([N+](=O)[O-])cn1	i
Clc1ccccc1-c1nc(-c2cccnc2)no1	i
CCn1c(SCC(=O)Nc2cc(C)c(Cl)cc2OC)nnc1-c1ccco1	i
O=C(Nc1nc2ccccc2[nH]1)C1CCCO1 (configuration not stated)	i
Cc1cc(C(=O)Cn2nnc(-c3ccc(Cl)cc3)n2)c(C)n1CC1CCCO1 (configuration not stated)	1.1
O=C1c2ccccc2C(=O)N1CCCOc1ccccc1	i
COc1ccc(C2CC(C(F)(F)F)n3nc(C(=O)O)cc3N2)cc1OC (configuration not stated)	0.1
COc1ccc(OC)c2c(C)cc(N3CCN(C(=O)c4ccc(F)cc4)CC3)nc12	i
O=S(=O)(c1ccc2c(c1)OCCO2)N1CCC(n2nnc3cc(C(F)(F)F)ccc32)CC1	1.7
COc1ccc(CNC(=O)CCc2nc(-c3ccccc3F)no2)c(OC)c1	i

A second format for part of the listing above:
CCn1c(SCC(=O)Nc2cc(C)c(Cl)cc2OC)nnc1-c1ccco1
- H5N1 antiviral: i

COc1ccc(-c2cc(C(F)(F)F)n3nc(C(=O)Nc4cc(C)on4)cc3n2)cc1OC
- H5N1 antiviral: 0.8

The list goes on.
Compound	H5N1 antiviral
c1coc(-c2nnc3sc(-c4cccs4)nn23)c1	5.1
Cc1cccc(-n2c(=O)[nH]c3c(C(N)=O)nc(CC(C)C)nc32)c1	i
CN(C)c1nc(N)nc(CSc2nnnn2-c2ccccc2)n1	0.1
CC1CCN(Cc2ccc(NC(=O)CC3Oc4ccccc4NC3=O)cc2)CC1 (configuration not stated)	i
CCCCC(CC)CNC(=O)CCS(=O)(=O)c1cccc2nsnc12 (configuration not stated)	1.7
COc1ccc(C(=O)C2CCN(S(=O)(=O)c3ccc4c(c3)OCCO4)CC2)cc1	i
Nc1ccn(-c2ccccc2)c(=O)c1	0.0
CC(Oc1ccccc1)C(=O)OCC(=O)NC(=O)NCc1ccco1 (configuration not stated)	i
CCCCCC/C(=N/O)c1ccccn1	0.8
CSc1ccccc1NC(=S)Nc1cc(C)cc(C)c1	i
Cc1ccc(C(C)n2cc(C(=O)NCc3ccncc3)nn2)cc1 (configuration not stated)	0.9
CCOCC(=O)Nc1c(C(=O)OCC)oc2ccccc12	0.6
CSc1ncccc1C(=O)OCC(=O)N(C)C1CCS(=O)(=O)C1 (configuration not stated)	0.4
COC(=O)c1ccc(CSc2n[nH]c(=S)s2)o1	i
Cc1ccnc(-n2c(C)cc(C=C3C(=O)N(C)C(=S)N(C)C3=O)c2C)c1	i

Next section
Compound	H5N1 antiviral
COc1cccc(-c2cc(C(=O)N3CCN(Cc4ccccc4)CC3)no2)c1	i
CC1(C(=O)NCc2cccnc2)CCC(=O)N1CCc1ccccc1 (configuration not stated)	0.3
COc1ccc(/C=C/C(=O)NC(=S)NNC(=O)c2cccnc2)cc1OC	1.7
CC(Sc1nnc(Cc2cccs2)n1C1CCCCC1)C(=O)N1CCc2ccccc21 (configuration not stated)	0.5
COc1ccc(Nc2oc(COc3ccc(Cl)cc3)nc2C#N)cc1	i
O=C(Nc1ccc(CN2CCOCC2)cc1)c1cc2ccccc2o1	0.5
COc1ccc(C)cc1NC(=O)CSc1nnc(-c2cc3cccc(OC)c3o2)n1N	i
CCC(C)(C)C(=O)Nc1ncc(S(=O)(=O)c2ccc([N+](=O)[O-])cc2)s1	20
CSC(=NCc1cccnc1)NS(=O)(=O)c1cccs1	i
O=C(Nc1ccccc1)c1cccc(S(=O)(=O)N2CCCCC2)c1	3.9
COc1cc(CNCCCN2CCOCC2)cc(Br)c1OCC(=O)N1CCCCC1	0.1
CN(CCNC(=O)c1ccc(N2CCCC2=O)cc1)CCc1ccccc1	i
O=C1CC(Sc2ncn[nH]2)C(=O)N1c1ccccc1 (configuration not stated)	i
COc1cc(C(=S)N2CCOCC2)cc(OC)c1OC(=O)c1cc([N+](=O)[O-])c(C)c([N+](=O)[O-])c1	i
Cc1ccccc1-n1nc2c(c1NC(=O)COc1ccc(Cl)cc1)CS(=O)C2 (configuration not stated)	1.1
CN(C)S(=O)(=O)N1CCc2ccccc21	i
CCOC(=O)C1CN(S(=O)(=O)c2ccc(C)cc2)c2cc(S(=O)(=O)CC)ccc2O1 (configuration not stated)	3.0

Some of the compounds tested; rates above refer to the full screens.
